Screens: PubChem, National Center for Advancing Translational Sciences (NCATS)
gsp agonist – qHTS for Agonist of gsp, the Etiologic Mutation Responsible for Fibrous Dysplasia/McCune-Albright Syndrome: qHTS | gsp mutant cells, cAMP HTRF, 30 min; control for the full effect not named in the record | Potency, µM (highest dose often 76.9 µM), for the others: top-dose activation (cAMP increase), usual class: activators | 340,000 tested, 0.13% active | AID 624287, 2012; active = well fitted activation curve with a large enough effect; inconclusive = small, poorly fitted or top-dose-only effect, or another doubt; inactive = no such curve, though single readings can be large or run the other way; cell line not stated here;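 further: phosphodiesterase inhibitor Ro 20-1724 added with compounds to block cAMP breakdown; potency means the concentration at half of the fitted maximal effect; nearly all actives have a fitted effect of over 60% in size; about a fifth of the inactives were tested at one dose only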
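Cells stably selected in G418 were plated at 2000/well, grown 16-24 hr, then given compounds in DMSO with the PDE inhibitor […] (300 uM solution added) for 30 min at 37C; cAMP was read by HTRF.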
Sfp PPTase inh – qHTS Assay for Inhibitors of Bacillus subtilis Sfp phosphopantetheinyl transferase (PPTase) | Biochemical Sfp PPTase activity, qHTS | Potency, µM, for inactives: max response, negative = inhibition, most hits filed as inhibitors | 310,000 tested, 3.5% active; active means well fitted inhibition curve with a large enough effect; inconclusive means small, poorly fitted or top-dose-only effect, or another doubt; inactive means no such curve, though single readings can be large or run the other way;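 further: the enzyme is Sfp with the accession as filed and its product quenches rhodamine fluorescence; potency means the concentration at half of the fitted maximal effect; 0% = enzyme reaction without inhibitor and -100% = no enzyme wells; top concentration of the series not given in the record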
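Compounds were incubated with enzyme (final 15 nM) for 15 min at room temperature before substrate addition started the reaction. Fluorescence at 525 nm excitation, 598 nm emission was recorded immediately and after 30 minutes.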
ClpP mod – qHTS Assay for Activators of ClpP; ATP-dependent Clp protease proteolytic subunit (Bacillus subtilis (strain 168)), P80244; purified B. subtilis ClpP, FRET peptide cleavage, 20 min; Potency, µM (highest dose often 57.5 µM), inactives show at the top dose activity change, negative = active; 340,000 tested, 1.9% active; AID 651965, 2013; active = well fitted falling curve with a large enough effect; inconclusive = small, poorly fitted or top-dose-only effect; inactive = no such curve, though single readings can be large or run the other way; further: potency means the concentration at half of the fitted maximal effect; the source files actives as falling curves though it sought activators and does not explain the sign; nearly all actives have a fitted effect of over 65% in size; many hits overshoot -100%
Target sequence (P80244 whole entry, looked up): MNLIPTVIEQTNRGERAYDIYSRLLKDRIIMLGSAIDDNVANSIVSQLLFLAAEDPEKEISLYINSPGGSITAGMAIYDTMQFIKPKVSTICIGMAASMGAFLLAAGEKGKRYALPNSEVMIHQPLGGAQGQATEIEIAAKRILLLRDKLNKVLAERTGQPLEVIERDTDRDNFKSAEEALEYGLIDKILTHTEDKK
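Purified B. subtilis ClpP, 10 microg/mL final in Tris/HCl pH8 with KCl, BSA, glycerol and Tween-20, cleaved an Abz/nitrotyrosine-quenched decapeptide. Fluorescence (ex 320, em 430) was read at 0 and 20 min at room temperature. Delta was normalized to 5.8 microM ADEP and DMSO/no-enzyme controls.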
Menin MLL FP FL – qHTS Assay for Inhibitors Targeting the Menin-MLL Interaction in MLL Related Leukemias: Competition With Fluorescein Labeled MLL-derived Peptide; AID 1766, 2009; Fluorescence polarization, fluorescein-MLL peptide displacement from menin; FP activity change, % at 61.4 µM; 290,000 tested, under 10 active; inconclusive = falling polarisation curve, or a change in total fluorescence; inactive = total fluorescence flat and polarisation flat or rising; no compound was filed as active; the % refers to the polarisation; negative = inhibition;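 further: % of control where 0% means no effect; inhibitors lower the polarisation; unlabelled MLL peptide was the positive control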
D2 PAM – Beta-Arrestin HTS for Positive Allosteric Modulators of the Human D2 Dopamine Receptor: Potentiators; D(2) dopamine receptor (Homo sapiens), P14416; DiscoveRx D2 beta-arrestin cells, luminescence, 90 min; 100% = 57 uM dopamine signal; potentiation, % (test concentration not listed); 360,000 tested, 0.23% active; AID 624464, 2012; active = potentiation of 50% or more; inconclusive = 30% to 50%; inactive = 30% or less;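 further: compound concentration not given in the record; tested on top of an EC20 dose of dopamine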
Target sequence (P14416 whole entry, looked up): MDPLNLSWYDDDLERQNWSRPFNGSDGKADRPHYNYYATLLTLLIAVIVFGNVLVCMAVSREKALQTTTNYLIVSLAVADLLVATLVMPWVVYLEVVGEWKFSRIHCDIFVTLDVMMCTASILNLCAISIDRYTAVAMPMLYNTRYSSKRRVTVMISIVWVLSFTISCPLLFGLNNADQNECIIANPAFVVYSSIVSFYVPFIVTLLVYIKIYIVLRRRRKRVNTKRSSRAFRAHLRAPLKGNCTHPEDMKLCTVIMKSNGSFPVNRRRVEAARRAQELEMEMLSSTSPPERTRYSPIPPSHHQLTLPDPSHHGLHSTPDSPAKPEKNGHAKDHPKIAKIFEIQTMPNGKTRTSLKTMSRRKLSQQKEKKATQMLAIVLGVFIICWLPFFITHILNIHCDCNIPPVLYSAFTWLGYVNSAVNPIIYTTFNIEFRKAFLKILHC
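PathHunter beta-arrestin assay in DiscoveRx D2 cells. Compounds were added with an EC20 of dopamine (50 nM final) for 90 min at 37 deg C. Luminescence was read 1 h after detection reagent, with 57 uM dopamine as the EC100 control.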
TRPV1 PAM – HTS Assay for Compounds that Act as Potentiators of the Vanilloid Receptor 1 | Transient receptor potential cation channel subfamily V member 1 (Homo sapiens), Q8NER1 | TRPV1-expressing cells, Fluo-8 calcium influx, capsaicin EC20 potentiation; host cell line not named in the record; control for the full effect not named in the record | potentiation, % at 8.33 µM | 320,000 tested, 0.02% active | AID 540277, 2011; active means potentiation above 80%; inconclusive means 30% to 80%; inactive means below 30%; further: 0% is about no effect
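Fluo-8 calcium influx in TRPV1-expressing cells, kinetic read (ex 480/em 520 nm). Compound added and read 3 min for agonist activity, followed by capsaicin at EC20 final and 2 min further read for enhancement.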
gsp antag – qHTS for Antagonists of gsp, the Etiologic Mutation Responsible for Fibrous Dysplasia/McCune-Albright Syndrome: qHTS. gsp-mutant cells, cAMP HTRF, 30 min; control for the full effect not named in the record. Potency, µM (top dose mostly 76.9 µM), without a hit: at the highest dose activity change, negative = inhibition, most hits filed as inhibitors. 340,000 tested, 0.4% active; active = falling curve of any shape with a large fitted effect; inconclusive = falling curve, mostly with a smaller effect; inactive = flat or rising curve; cell line not stated here;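 further: intracellular cAMP measured with PDE inhibitor Ro 20-1724 present during compound exposure; potency means the concentration at half of the fitted maximal effect; on the % scale 0 is the no-effect control and ±100 the full control effect; nearly all actives have a fitted effect of over 65% in size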
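Cells, 2000/well, grown 16–24 h in DMEM 10% FBS with 0.5 mg/ml G418, then compounds plus […] (300 uM addition stock), 30 min at 37C. cAMP read by HTRF (cAMP-d2 and anti-cAMP antibody-K in lysis buffer) after 30 min RT.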
An asterisk follows results filed as active; u = inconclusive; x = no result given; & = joins results of further samples; [ ] = dose if it differs, or a comment. Outcome played no part in choosing rows. About 5.1% of those tested had a hit in this group.

entry	molecule	gsp agonist	Sfp PPTase inh	ClpP mod	Menin MLL FP FL	D2 PAM	TRPV1 PAM	gsp antag
1	COC(=O)Nc1c(C(=O)OC)cc(OC)c(OC)c1OC	u	5%	-25%	-3.4	-7	10	4%
2	CCOCCCNC(=S)N1CCCN(c2nc3c(C)c(C)ccc3cc2C#N)CC1	31%	9%	x	2.0	-5	-9	-15%
3	COC(=O)CSc1nc(NC(C)C)nc(N2CCOCC2)n1	29%	-4%	-1.1%	0.3	-3	3	3%
4	COc1ccc(N/C=C/C(=O)C(C)(C)C)cc1	20%	22%	x	0.7	-7	-10	-3%
5	COc1ccc(C(=O)COC(=O)CN2C(=O)NC(C)(C)C2=O)cc1OC	15%	2%	-0.7%	-4.2	4	-10	-2%
6	Cc1ccc(CNC(=O)c2ccc3c(c2)NC(=O)C(N2CCOCC2)S3)cc1 (stereo not given)	11%[15.4 µM]	16%	x	0.8	-18	7	-7%
7	Cc1ccc(C(=O)NCC(c2ccc(F)cc2)N2CCOCC2)cc1S(=O)(=O)N1CCOCC1 (stereo not given)	-44%[inhibitor]	x	1.3%	x	-8	x	0%
8	Cc1cccc(NC(=O)CN2C(=O)c3ccccc3C2=O)c1C	-2%	0%	0.9%	-5.3	-8	2	6%
9	O=S(=O)(c1ccc(C(F)(F)F)cc1)N1CCN(CCc2ccccc2)CC1	19%	13%	x	-8.8	-10	2	7%
10	COc1ccc(COC(=O)c2ccc(S(=O)(=O)N3CCCCC3)cc2)cc1OC	-7%	x	-2.1%	x	-10	-9	-14%
11	CCc1ccc(CCC(=O)N2CCN(S(=O)(=O)c3ccc(Br)cc3)CC2)cc1	u	x	-2.1%	x	-9	x	x
12	COc1ccc(C(CNC(=O)CCNS(=O)(=O)c2ccccc2C(F)(F)F)N2CCOCC2)cc1 (stereo not given)	-3%[15.4 µM]	x	x	x	-1	x	9%
13	COc1ccc(NC(=O)Cc2ccc(Cl)cc2)cc1S(=O)(=O)N1CCCCC1	7%	x	-1.0%	x	-1	-5	-35%
14	CC1CCN(C(=O)c2ccccc2NC(=O)c2cccc(S(=O)(=O)N(C)C)c2)CC1	3%	13%	-0.4%	x	3	11	7%
15	CCOc1ccc(C(=O)NCC(=O)NC(C)CCc2ccccc2)cc1OCC (stereo not given)	15%	14%	-2.3%	x	-15	18	-13%
16	O=C(Nc1ccc2c(c1)OCO2)c1cc(C2CC2)on1	-2%	3%	0.5%	1.5	-6	-32	-8%
17	Cc1ccc(CNC(=O)CN(C)S(=O)(=O)c2cccs2)cc1	7%[15.4 µM]	10%	x	-1.0	-5	-7	8%
18	CCN(CC)S(=O)(=O)c1cc(NC(=O)COC(=O)c2sc3ccccc3c2Cl)ccc1C	-9%	30%[activator]	-3.4%	0.3	-5	8	11%
19	O=C(N/N=C/c1ccccc1)C(=O)N/N=C/c1ccccc1	u	-3%	x	0.5	-3	3	3%
20	Cc1cccc(NC(=S)NC(=O)/C=C/c2ccco2)c1	18%	u	x	u	-11	4	9%
21	Cc1ccc(-c2cc(C(F)F)nc(NCc3cccnc3)n2)cc1	u	1%	14µM*	2.0	-23	-12	-27%
22	Cc1nnc(SCC(=O)N(CC(C)C)C2CCS(=O)(=O)C2)n1N (stereo not given)	16%	x	0.3%	x	-1	-9	12%
23	COc1ccccc1NC(=O)CN1C(=O)CCS(=O)(=O)c2ccccc21	2%	0%	0.4%	0.9	8	5	1%
24	COc1cccc(N2CCN(C(=S)NCc3ccco3)CC2)c1	0%	12%	-2.2%	2.7	-7	-9	-1%
25	COc1cccc(-c2cc(C(=O)Nc3cccnc3)c3ccccc3n2)c1	-8%	-8%	-6.0%	-3.5	-14	20	-6%
26	CC1=CC(c2ccccc2)n2nc(N3C(=O)C4CC=CCC4C3=O)nc2N1 (stereo not given)	u	9%	2.2µM*	1.9	-15	-1	-8%
27	COc1ccc(C2N3CC4(C)CN2CC(C)(C3)C4=O)cc1OC (stereo not given)	u	-5%	1.0%	1.6	-1	-1	12%
28	Cc1cccc(NC(=O)c2cccc(OC(=S)N3CCOCC3)c2)c1	0%[15.4 µM]	6%	x	1.6	-4	-8	-10%
29	CCOC(=O)c1nn(-c2ccc(F)cc2)c(=O)cc1OCC(=O)N1CCN(c2ccccc2)CC1	-4%	x	-22%	x	-34	-29	-12%
30	Cc1cccc(OCC(=O)Nc2ccc(S(=O)(=O)Nc3cc(C)nc(C)n3)cc2)c1	17%[15.4 µM]	8%	x	-1.4	6	3	-27%
31	O=C(C1CCCO1)N1CCC(O)(c2ccccc2)CC1 (stereo not given)	-16%	2%	-1.1%	1.9	-6	3	1%
32	N#Cc1ccc(-n2c(-c3ccccc3)nnc2-c2ccccc2)cc1C#N	3%	-1%	u	-2.9	-4	1	-2%
33	Cc1ccc(C(=O)OCc2c(C)noc2C)cc1NC(=O)c1ccco1	5%	4%	x	-2.9	-7	-1	-3%
34	Cc1ccc(-n2nnnc2SCC(=O)c2c(N)n(C3CC3)c(=O)[nH]c2=O)c(C)c1	u	x	1.0%	x	1	-13	0%
35	COc1cc(NC(=O)c2ccc3c(SCC(=O)O)c4c(nc3c2)CCCC4)cc(OC)c1OC	u	-7%	0.4%	12	-9	2	0%
36	O=S1(=O)N=C(Nc2ccc(O)c(CN3CCCCC3)c2)c2ccccc21	-5%	-11%	1.8%	1.8	-23	-2	3%
37	O=C(Nc1ccccc1O)c1nc(Cl)ccc1Cl	-18%	-21%	x	-3.8	-4	20	-20%
38	COc1ccc(-c2noc(CSc3nc(N)c(-c4ccccc4)c(=O)[nH]3)n2)cc1OC	22%	2%	1.0%	0.7	-12	10	0%
39	Cc1cc(NC(=O)COC(=O)c2ccccc2Cl)no1	16%	x	-0.9%	x	-4	x	11%
40	CN(C)C(=O)c1cc(-c2ccccc2)no1	u	27%	x	-5.6	3	5	1%
41	CC(C)Oc1ccc(NC(N)=O)cc1	-36%[inhibitor]	1%	-0.5%	4.1	10	-12	-7%
42	CC(=O)c1ccc(S(=O)(=O)Nc2ccc(C(=O)NCC(c3ccccc3)N(C)C)cc2)cc1 (stereo not given)	6%[15.4 µM]	23%	-0.9%	-0.9	-23	7	-5%
43	O=C(CSc1nc(-c2ccco2)cc(C(F)(F)F)n1)NCCCn1ccnc1	16%	10%	-16%	4.3	-6	-6	7%
44	CC(=O)N1CCN(c2ccccc2NC(=O)c2cccc3c(Cl)cccc23)CC1	u	-2%	0.4%	-7.7	-3	-7	-29%
45	O=C1[C@H]2[C@H](C=CC[C@H]2C(=O)N2CCN(c3ccccc3)CC2)CCN1Cc1ccc(Cl)c(Cl)c1	x	x	-3.3%&-0.5%	x	-7	x	u
46	COc1ccc(N2CCN(C(=O)c3ccc(N4CCCCS4(=O)=O)cc3)CC2)cc1	u	1%	-0.7%	-4.2	-8	2	-9%
47	CC1(C)NC(=O)N(CC(O)CN2CCCCC2)C1=O (stereo not given)	2%	26%	0.6%	2.6	3	-9	3%
48	O=c1cc(CSc2nnc(COc3cccc4ccccc34)o2)c2ccccc2[nH]1	-13%[15.4 µM]	-5%	x	3.0	-2	9	7%
49	CC12CCC(=O)N1C(C(=O)NCCN1C(=O)S/C(=C\c3ccccc3F)C1=O)CS2 (stereo not given)	-1%[15.4 µM]	x	x	x	-5	10	-6%
50	CCC(=O)c1ccc(OCC(O)Cn2nc(C)c(C(C)=O)c2C)cc1 (stereo not given)	-17%	15%	-0.1%	-2.8	-3	7	4%

Later entries:
entry	molecule	gsp agonist	Sfp PPTase inh	ClpP mod	Menin MLL FP FL	D2 PAM	TRPV1 PAM	gsp antag
51	Nn1c(SC/C=C/c2ccccc2)nnc1-c1cccnc1	10%	-6%	-1.3%	2.7	-6	u	3%
52	O=C(Nc1nnc(-c2ccncc2)o1)c1ccccc1	26%[15.4 µM]	-5%	x	1.5	-4	-1	-2%
53	Cc1sc2ncn3c(C)nnc3c2c1C	u	-13%	-10%	-1.9	-7	0	3%
54	COc1cccc(S(=O)(=O)N2CCN(C(=O)c3ccco3)CC2)c1	0%	u	x	2.2	-3	8	-4%
55	COCCOC1CCN(C(=O)C2CCC(=O)N(CCc3ccc(OC)cc3)C2)CC1 (stereo not given)	-13%	5%	0.5%	-0.6	-11	9	20%
56	COc1cccc(NC(=O)C(NC2CCCC2)c2ccccc2)c1 (stereo not given)	4%	-4%	-1.5%	-3.8	-8	7	10%
57	Cc1cccc(-n2cnc(C(=O)O)c2)n1	-1%	56µM*	x	-12	4	-1	3%
58	CCCCOc1ccc(C(=O)NCC(=O)NC2CC2)cc1	-39%[inhibitor]	x	0.8%	x	27	0	9%
59	O=C(Cc1ccc([N+](=O)[O-])cc1)OCc1c(F)cccc1Cl	-7%[15.4 µM]	10%	-1.6%	3.6	-33	-9	-5%
60	COCCCNC(=O)C[C@H]1C[C@H](C(=O)N2CCCCC2)[C@@]2(C)c3[nH]c4cc(-c5ccco5)ccc4c3CCN2C1=O	x	x	4.0%	x	-3	x	-20%
61	CCCCc1nc2cc(C(=O)N(C)C3CCOCC3)ccc2o1	u	1%	-1.1%	2.5	1	5	3%
62	O=C(Nc1nnc(C2CC2)s1)c1ccco1	27%[15.4 µM]	-2%	x	-1.4	-4	0	-2%
63	Cc1noc(C(=O)Nc2ccc3c(c2)OCO3)c1Cl	-23%	13%	-1.5%	1.9	-5	3	7%
64	CN(C)C(=S)Nc1ccc2c(c1)OCCO2	7%[15.4 µM]	-3%	x	5.5	-5	x	4%
